Hsc70 ATP site: Hsc70 inhibitors, probe displacement, primary screen, biochemical, fluorescence polarization (AID 568); Heat shock cognate 71 kDa protein (Homo sapiens); Hsc70 fluorescence polarization, probe displacement; higher % means a stronger effect; strong numbers were not always called active; one-dose displacement, % at 20 µM; IC50 in µM for titrated hits; 83,000 tested, under 10 active;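 active = displacement above 50% without optical interference and an IC50 on retest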;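 note: ATPase domain with a fluorescein-tagged ATP probe; 0% = vehicle and 100% = excess ADP; read after one hour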
WNV protease inh: inhibitors of WNV NS2B-NS3 protease, primary screen, biochemical, fluorogenic substrate | Genome polyprotein (West Nile virus), P06935 | fluorogenic substrate Ex360/Em465; hits give low values | z-score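 (tested at a level between 10 and 100 µM)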 | 65,000 compounds, 0.18% hits | AID 577, 2007;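 active = z-score at -3 or under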;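 note: score is relative to mean and spread of the compound wells of a plate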
Target sequence (P06935 1371-1501 limits assumed): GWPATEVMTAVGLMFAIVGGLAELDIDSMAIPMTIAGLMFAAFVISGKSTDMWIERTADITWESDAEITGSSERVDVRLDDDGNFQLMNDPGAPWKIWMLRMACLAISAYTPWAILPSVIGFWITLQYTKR
Target sequence (P06935 1502-1679 limits assumed): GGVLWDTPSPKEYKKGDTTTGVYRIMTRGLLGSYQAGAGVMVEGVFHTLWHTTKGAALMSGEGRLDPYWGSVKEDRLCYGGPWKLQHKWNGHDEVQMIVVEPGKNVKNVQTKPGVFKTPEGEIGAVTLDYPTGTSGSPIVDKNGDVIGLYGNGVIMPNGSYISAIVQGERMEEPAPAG
MT1-MMP reporter: inhibitors of MT1-MMP promoter transcription, cell-based, luciferase reporter, luminescence (AID 618); MT1-MMP promoter luciferase reporter cells, luminescence; calls from a first round at 10 µM; hits with a dose series show EC50 in µM; 87,000 compounds, 0.62% hits;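 active = over half of the reporter light lost at 10 µM or EC50 under 50 µM; inactive = the rest and hits that failed the dose series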;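 note: actives suppress MT1-MMP promoter-driven transcription so potencies describe inhibitors; HT1080 fibrosarcoma cells; overnight exposure; toxic or luciferase-blocking compounds were not removed from the actives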
* = called active by the depositor; i = inactive; / = not tested or not shown.

SMILES	Hsc70 ATP site	WNV protease inh	MT1-MMP reporter
COC(=O)C(C)Sc1nc2c(cnn2-c2ccc(C)cc2)c(=O)[nH]1 (stereo unspecified)	8.9%	-0.84	i
COc1ccc(CCNC(=O)c2cc(-c3ccc4c(c3)OCO4)on2)cc1OC	-10.4%	0.33	i
CCOC(=O)C1CCN(Cc2ccc(O)c3ncccc23)CC1	-7.2%	3.64	i
O=C(O)c1ccccc1C(=O)Nc1ccccn1	-3.6%	1.88	i
Cc1ccccc1CN1CCNC1=O	-12.6%	0.54	i
Cc1cc(C(=O)N(C2CCCCC2)C2CCCCC2)no1	-4.7%	-0.26	i
Cc1cccc(C)c1NC(=O)CSc1nnc(-c2ccco2)n1N	-9.9%	1.64	i
O=C(CSc1ccc2nnc(-c3ccc(F)cc3)n2n1)NCC1CCCO1 (stereo unspecified)	4.7%	0.55	i
Cc1sc(/N=C/c2ccccc2O)c(C#N)c1C	2.5%	/	i
CCOc1ccc(S(=O)(=O)Nc2ccc(S(=O)(=O)N3CCCC3)cc2)cc1	-1.9%	/	i
CCc1nc(N(CC)CC)c2oc3ccccc3c2n1	4.3%	0.08	i
CCCc1nnc(NC(=O)CCN2C(=O)c3ccccc3C2=O)s1	-7.0%	1.06	i
CC(C)OC(=O)c1cccc(C(=O)O)n1	-0.2%	0.98	i
Cc1cc(NC(=O)c2ccc3c(c2)OCO3)no1	3.0%	0.77	i
CC(NS(=O)(=O)c1ccccc1)C(N)=O (stereo unspecified)	-2.5%	-0.07	i
NC(=O)c1ccccc1NS(=O)(=O)c1ccc2c(c1)OCCO2	4.6%	/	i
COc1ccc(CC(NC(C)=O)C(=O)NC2CCN(C(=O)Nc3ccccc3Cl)CC2)cc1OC (stereo unspecified)	2.3%	/	i
C(=N\n1cnnc1)/c1cccc(OCCOc2ccccc2)c1	-0.7%	-0.7	i
Cc1cc(OCC(=O)Nn2cnnc2)c(C)cc1Br	-2.7%	-0.5	i
C=CCN(C(=O)CN1CCOCC1)c1nc(C)c(-c2ccccc2)s1	-1.0%	-0.84	i
O=C(CN1C(=O)c2ccccc2S1(=O)=O)NCc1ccccn1	-1.1%	0.00853	i
NC(=O)C1(c2ccccc2)CCOCC1	-1.0%	-0.61	i
O=C(O)CC(=O)Nc1cc(Cl)ccc1O	-6.1%	/	i
CC1(C)Cc2c(C#N)c(NCC3CCCO3)nc(-c3ccco3)c2CO1 (stereo unspecified)	4.1%	0.73	i
Cc1cc(C)cc(NC(=O)CSc2nnc(-c3ccccc3)n2N)c1	-5.6%	-2.06	i
Continued.
SMILES	Hsc70 ATP site	WNV protease inh	MT1-MMP reporter
COc1ccc(C(=O)NCC(=O)OCC(=O)N2CC(C)CC(C)C2)cc1 (stereo unspecified)	-2.3%	/	i
CSc1nnc(-c2cccs2)n1-c1ccccc1	-6.5%	-0.93	i
COCCCNC(=O)c1ccc2c(c1)OCO2	-1.5%	-0.86	i
COc1ccc(-n2c(SCC(=O)Nc3nccs3)nc3c(c2=O)SC(C)C3)cc1 (stereo unspecified)	1.5%	-0.44	i
CCC/C(O)=N\S(=O)(=O)c1ccc(N=NN(C)C)cc1	-1.6%	/	i
COc1ccc(S(=O)(=O)N2CCN(c3ccccn3)CC2)cc1OC	-3.1%	0.38	i
Brc1cccc(-c2cnc3n2CCCCC3)c1	-0.9%	-4.2*	i
Cc1ccc(NS(=O)(=O)c2cc(OCC(N)=O)c(C)cc2Cl)cc1C	-3.7%	/	i
CCCCCc1c(O)nc(SCC(=O)NCC2CCCO2)[nH]c1=O (stereo unspecified)	2.2%	-0.73	i
COc1ccc(OC)c(NC(=O)C23CCC(C)(C(=O)O2)C3(C)C)c1 (stereo unspecified)	8.3%	0.12	i
O=C(NC1CCCCC1)c1ccc(S(=O)(=O)NCc2cccnc2)cc1	-0.1%	-0.84	i
COc1ccc(S(=O)(=O)NCc2ccc(C(=O)O)cc2)cc1	3.1%	-0.68	i
COc1cc(C)c(S(=O)(=O)n2ccc(C)n2)cc1C	0.1%	-2.03	i
CCN(CC)C(=O)COn1c(SCC(=O)N(CC)CC)nc2ccccc2c1=O	-1.6%	0.17	i
CCOc1ccc(C)cc1S(=O)(=O)n1ccc(C)n1	5.0%	-1.33	i
COc1ccc(CC(NC(C)=O)C(=O)N2CCN(C(=O)N(C(C)C)C(C)C)CC2)cc1 (stereo unspecified)	4.2%	0.32	i
COc1ccc(NC(=O)CNS(=O)(=O)c2ccc3nc(C)sc3c2)c(OC)c1	-1.3%	0.09	i
Cc1cc(C)c(NC(=O)CSc2nnc(SCC(=O)Nc3c(C)cc(C)cc3C)n2N)c(C)c1	2.6%	/	i
CC1CCN(C(=S)c2ccccc2O)CC1	0.5%	-0.52	i
COCC(C)NC(=O)C1CC(=O)N(c2ccc(C)cc2)C1 (stereo unspecified)	-5.1%	-0.71	i
CN1CCN(S(=O)C23CC4CC(CC(C4)C2)C3)CC1 (stereo unspecified)	6.5%	-0.35	i
CCOc1ccccc1C(=O)N(CN1CCCC1=O)c1cccc(Cl)c1	1.2%	-0.19	i
CCCn1nc(CC(=O)O)c2ccccc2c1=O	0.4%	-0.23	i
COc1cccc(NC(=O)CN2C(=O)COc3ccc(Cl)cc32)c1	3.8%	0.16	i
CCn1c(-c2ccc(N)cc2)nc2ccccc21	-2.0%	-0.39	i

Shown field by field: entries from further up
> COc1ccc(CCNC(=O)c2cc(-c3ccc4c(c3)OCO4)on2)cc1OC
  Hsc70 ATP site: -10.4%
  WNV protease inh: 0.33
  MT1-MMP reporter: i

> CCOC(=O)C1CCN(Cc2ccc(O)c3ncccc23)CC1
  Hsc70 ATP site: -7.2%
  WNV protease inh: 3.64
  MT1-MMP reporter: i

> O=C(O)c1ccccc1C(=O)Nc1ccccn1
  Hsc70 ATP site: -3.6%
  WNV protease inh: 1.88
  MT1-MMP reporter: i

> Cc1ccccc1CN1CCNC1=O
  Hsc70 ATP site: -12.6%
  WNV protease inh: 0.54
  MT1-MMP reporter: i

Complete entries, quoted from the list:
COCCCNC(=O)c1ccc2c(c1)OCO2 is listed with Hsc70 ATP site: -1.5%; WNV protease inh: -0.86; MT1-MMP reporter: i
CCCCCc1c(O)nc(SCC(=O)NCC2CCCO2)[nH]c1=O (stereo unspecified) is listed with Hsc70 ATP site: 2.2%; WNV protease inh: -0.73; MT1-MMP reporter: i
CC1CCN(C(=S)c2ccccc2O)CC1 is listed with Hsc70 ATP site: 0.5%; WNV protease inh: -0.52; MT1-MMP reporter: i

The list continues.
SMILES	Hsc70 ATP site	WNV protease inh	MT1-MMP reporter
CCOC(=O)C1=C(CSc2nc3c(cc2C#N)CCC3)OC(N)=C(C#N)C1c1ccccc1 (stereo unspecified)	-5.9%	0.89	i
Cc1ccc(NC(=O)CC(NCCN2CCOCC2)C(=O)O)cc1Cl (stereo unspecified)	-8.4%	-0.89	i
CCOC(=O)c1c(NC(=O)Cc2cccs2)sc(C(=O)NC2CCCC2)c1C	-3.1%	/	i
Cc1c(C#N)c2ncn(Cc3ccccn3)c(=O)c2n1-c1ccccc1	1.6%	/	i
CCn1c2ccccc2c2cc(NC(=S)N3CCOCC3)ccc21	3.6%	/	i
COc1cc(OC)c(NC2=NCCCCC2)cc1Cl	2.8%	-0.04	i
C=CCn1c(SCC(=O)c2ccc(OC)cc2)nnc1C(C)NC(=O)c1cccs1 (stereo unspecified)	4.0%	0.73	i
COC(=O)c1nc(-c2ccccc2)n[nH]1	-2.9%	-0.91	i
CCCCn1c(NC(=O)C2CCCCC2)nc2ccccc21	-1.1%	/	i
Cc1ccc(S(=O)(=O)NCCC(=O)NCCN2CCCCCC2)cc1	3.6%	1.14	i
Cc1ccc(C)c(C(=O)CSc2n[nH]c(-c3ccncc3)n2)c1	1.5%	-1.45	i
COc1ccc(OC)c(S(=O)(=O)N2CCCC(C)C2)c1 (stereo unspecified)	0.7%	/	i
Cc1nn(-c2ccccc2)c2sc(C(=O)NC3CCCCC3)cc12	6.9%	-0.58	i
COc1ccc(C(=O)CSc2nnc(-c3cc4ccccc4cc3O)n2Cc2ccco2)cc1	-5.9%	0.4	i
CCS(=O)(=O)CCSc1nc(C)cc(C)n1	-2.1%	0.49	i
COc1cc(S(=O)(=O)N(Cc2ccc(C)cc2)Cc2ccco2)ccc1-n1cnnn1	5.5%	/	i
COc1ccccc1-c1nnc2n1N=C(C)CS2	-2.0%	0.04	i
COc1cc(NC(=O)c2ccccc2)c(OC)cc1NC(=O)CN1CCN(c2ccccn2)CC1	1.6%	-0.5	i
CCOC(=O)C1=C(CC)Nc2ccccc2N=C1NC(=O)Nc1ccccc1OC	-4.6%	0.81	i
N#Cc1nc(Cc2ccccc2)oc1N1CCC(Cc2ccccc2)CC1	0.1%	0.46	i
CCOc1ccccc1C(=O)Nc1cc(OC)ccc1OC	-2.0%	-0.38	i
COc1ccccc1NC(=O)N1CCCC(c2nc3c(nnn3Cc3ccc(C)cc3)c(=O)[nH]2)C1 (stereo unspecified)	-3.3%	-0.68	i
Cn1c(SCC(=O)NCc2ccc3c(c2)OCO3)nnc1-c1cc2ccccc2cc1O	-0.3%	-0.58	i
CCOc1ccc(CC(=O)Nc2c(C(N)=O)oc3ccc(Br)cc23)cc1OCC	1.4%	0.21	i
COc1ccc2[nH]c(C)c(CN3CCCCC3)c(=O)c2c1	1.2%	0.67	i
Remaining list, next part.
SMILES	Hsc70 ATP site	WNV protease inh	MT1-MMP reporter
O=C(Oc1ccc(Br)cc1)C1CC(=O)N(c2ccc(F)cc2)C1 (stereo unspecified)	-2.3%	0.1	i
Cc1cccc(NC(=O)CN(C)S(=O)(=O)c2cnc[nH]2)c1	1.1%	-0.04	i
CC(=O)C1=C(C)NC(C)=C(C(C)=O)C1c1cccs1	3.0%	0.08	i
CCN(C(=O)c1cn(C)c(=O)c2cc(OC)c(OC)cc12)c1cc(OC)ccc1OC	-8.4%	0.09	i
COc1ccc(CCNC(=O)CC2Oc3ccc(Cl)cc3NC2=O)cc1OC (stereo unspecified)	4.7%	0.52	i
COCCN(CCOC)c1ncnc2c1cnn2-c1ccc(Cl)cc1	1.8%	0.62	i
COC(=O)[C@@H](NC(=O)NCc1ccco1)C(C)C	-2.0%	-1.11	i
O=C(NCCc1csc(-c2cccnc2)n1)c1ccc(Br)o1	3.4%	-0.91	i
Cc1ccc(-c2ccc(C(=O)O)[nH]2)cc1	-3.2%	0.05	i
CN1CCN(S(=O)(=O)c2ccc(NC(=O)Nc3cccc(Cl)c3)cc2)CC1	-3.0%	0.25	i
CCCn1nnc(NC(=O)C(c2ccccc2)c2ccccc2)n1	-7.2%	/	i
CCSc1nccc(-c2nn(-c3ccc(C)cc3)ccc2=O)n1	-1.2%	/	i
CCC(C(=O)NCc1ccc(F)cc1)N(Cc1ccco1)C(=O)c1snc(C(N)=O)c1N (stereo unspecified)	8.8%	-0.9	i
CC(C)OC(=O)CSc1nc2cc3c(cc2cc1C#N)OCO3	3.4%	/	i
Cc1ccc(C(=O)N2c3ccc(F)cc3CCC2C)o1 (stereo unspecified)	3.3%	0.98	i
O=C(CCC(=O)NC1CCCCCCC1)Nc1nnc(C(F)(F)F)s1	-1.7%	/	i
O=S(=O)(NCC1CCCO1)c1ccc2ccccc2c1 (stereo unspecified)	-8.5%	-0.08	i
C=CCn1c(=S)[nH]c2ccccc2c1=O	-0.1%	0.16	i
COc1ccccc1C(=O)N1C(CC(=O)Nc2cc(Cl)ccc2C)C(=O)NC2CCCCC21 (stereo unspecified)	-2.7%	/	i
CC(NC(=O)CSc1ncccn1)c1ccccc1 (stereo unspecified)	5.7%	-0.87	i
CCC(C)n1c(NC(=O)c2ccccc2)c(C#N)c2nc3ccccc3nc21 (stereo unspecified)	-57.0%	/	i
O=C(NCc1ccco1)C1CCN(c2nc3ccccc3n2Cc2ccc(F)cc2)CC1	5.2%	-1.12	i
CCOC(=O)C1=C(C)NC(=O)NC1c1ccc(C)o1 (stereo unspecified)	0.7%	1.81	i
Cc1ccc(S(=O)(=O)N2CC(=O)Nc3ccccc32)cc1C	2.2%	-0.84	i
O=C(c1ccc(COc2ccccc2Br)o1)N1CCN(c2ccccn2)CC1	1.3%	/	i
Carrying on.
SMILES	Hsc70 ATP site	WNV protease inh	MT1-MMP reporter
CCOCCn1c(SCc2cccc(C)c2)nc2c1c(=O)[nH]c(=O)n2C	1.3%	0.58	i
CCOC(=O)c1c(NC(=O)c2c(C)noc2C)sc2c1CCCCC2	-3.1%	/	i
Cc1cc(C(=O)Cn2nnc3ccccc3c2=O)c(C)n1-c1ccccc1F	-0.2%	/	i
COc1ccc(C)cc1NC(=O)COC(=O)c1c(C)noc1C	-2.2%	/	i
O=C(NCc1ccc2c(c1)OCO2)C1CC(=O)N(C2CCCCCCC2)C1 (stereo unspecified)	-1.9%	0.95	i
O=C(Cn1nnc(-c2ccccc2NC(=O)c2ccco2)n1)Nc1ccccc1	1.2%	-0.76	i
CC(C)Oc1ccc(CNCC2(O)CCOC(C)(C)C2)cc1 (stereo unspecified)	1.2%	0.95	i
N#Cc1c(N)n(CCOC(=O)c2cccc(Br)c2)c2nc3ccccc3nc12	-18.0%	-0.26	i
COc1ccc(C(=O)Nc2cc(=O)n(C)c(=O)n2C)cc1OC	2.3%	-0.49	i
CCc1nc(Nc2ccc3nccnc3c2)c2oc3ccccc3c2n1	-18.1%	-0.01	i
CSc1nnc2c(n1)c(C)nn2-c1cccc(C)c1	1.7%	/	i
O=C(Nc1ccccn1)NC(C(F)(F)F)C(F)(F)F	-8.2%	-0.7	i
O=C(NC1CCCCCC1)C1CCN(c2nc3ccccc3o2)CC1	-0.8%	1.57	i

Compound activity from PubChem BioAssay.

These rows are one share of the data. The share of hits here may be higher or lower than overall.
